KCNQ2 block: KCNQ2 potassium channel inhibitors, primary screen, cell-based, CHO-K1, FluxOR thallium flux, B-score (AID 2156). O88943. 20 min; stronger effect = lower value; only compounds with negative scores are shown here; some inactives read as strong as hits. B-score at 10 µM. 310,000 tested, 1.1% active;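 active = fluorescence ratio B-score at most minus 3 library SDs, with starting brightness B-score within 2 library SDs, cut at about -5.5 in these data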
Target sequence (O88943 whole entry, looked up): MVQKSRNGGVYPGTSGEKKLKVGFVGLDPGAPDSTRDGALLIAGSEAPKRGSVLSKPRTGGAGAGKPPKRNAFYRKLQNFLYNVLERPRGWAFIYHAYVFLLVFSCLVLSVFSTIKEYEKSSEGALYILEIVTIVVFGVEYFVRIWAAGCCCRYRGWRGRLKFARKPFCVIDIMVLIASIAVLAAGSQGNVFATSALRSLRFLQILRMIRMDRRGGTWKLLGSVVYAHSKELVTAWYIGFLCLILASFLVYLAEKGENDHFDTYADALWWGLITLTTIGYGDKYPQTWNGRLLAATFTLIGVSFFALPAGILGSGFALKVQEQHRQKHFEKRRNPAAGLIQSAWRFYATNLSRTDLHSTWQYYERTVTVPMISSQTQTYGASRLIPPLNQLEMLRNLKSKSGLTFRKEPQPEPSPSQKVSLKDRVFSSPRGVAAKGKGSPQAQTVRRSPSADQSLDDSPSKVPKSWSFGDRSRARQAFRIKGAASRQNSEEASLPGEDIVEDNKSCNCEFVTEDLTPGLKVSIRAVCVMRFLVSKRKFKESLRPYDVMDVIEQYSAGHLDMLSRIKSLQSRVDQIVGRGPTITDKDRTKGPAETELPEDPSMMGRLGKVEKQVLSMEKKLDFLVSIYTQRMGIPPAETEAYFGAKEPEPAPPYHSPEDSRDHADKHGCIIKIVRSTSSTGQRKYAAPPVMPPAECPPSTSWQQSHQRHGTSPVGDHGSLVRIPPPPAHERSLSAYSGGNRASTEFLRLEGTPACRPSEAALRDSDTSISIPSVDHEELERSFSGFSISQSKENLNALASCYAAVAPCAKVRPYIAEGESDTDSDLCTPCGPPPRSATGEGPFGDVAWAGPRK
KCNQ2 block baseline: further read-out of KCNQ2 block, marked with its call; B-score; measured here: initial fluorescence intensity artifact check;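 brightness before thallium and not channel activity; 0 = typical well and far values either way flag optical interference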
Starred values were filed as active, the others as inactive; i = inactive.

A first look, 2 compounds:
| canonical_smiles | KCNQ2 block | KCNQ2 block baseline |
| --- | --- | --- |
| O=C(CCc1nnc(CCc2ccccc2)o1)NC(c1cccnc1)C(F)(F)F (stereo unspecified) | i | 0.87 |
| NC(=O)C1CCN(C(=O)CNC(=O)c2ccc(Br)o2)CC1 | i | 2.6 |

The listing, previewed entries included:
| canonical_smiles | KCNQ2 block | KCNQ2 block baseline |
| --- | --- | --- |
| O=C(CCc1nnc(CCc2ccccc2)o1)NC(c1cccnc1)C(F)(F)F (stereo unspecified) | i | 0.87 |
| NC(=O)C1CCN(C(=O)CNC(=O)c2ccc(Br)o2)CC1 | i | 2.6 |
| CCc1noc(C)c1C(=O)Nc1cc(C(F)(F)F)ccc1-n1cncn1 | i | 0.12 |
| Cc1ccc(C(=O)Nc2ccc(Nc3ccccc3)cc2)c(Cl)c1 | i | 1.1 |
| Cc1ccc(N2C(=O)C3ON(c4ccccc4)C(CC(C)C)C3C2=O)cc1 (stereo unspecified) | i | -0.45 |
| CCOC(=O)c1c(COC(=O)c2ccco2)nc2ccccc2[n+]1[O-] | i | 0.52 |
| CCC1=NN2C(=N)/C(=C/c3ccc(OS(=O)(=O)c4ccccc4)cc3)C(=O)N=C2S1 | i | -1.8 |
| COc1ccc(C(NC(=O)C2C3C=CC(C3)C2C(=O)O)c2ccccc2)cc1 (stereo unspecified) | i | -0.52 |
| NC(=O)CSc1nc2ccc([N+](=O)[O-])cc2[nH]1 | i | 1.3 |
| CC(C)(C)SCCNC(=O)CN(c1ccccc1)S(=O)(=O)c1ccc(F)cc1 | i | 0.03 |
| CC1CCc2c(sc(NC(=O)c3ccc(-c4ccccc4[N+](=O)[O-])o3)c2C#N)C1 (stereo unspecified) | i | 0.71 |
| CC(=O)Nc1ccc(NC(=O)CCSCCc2ccccn2)cc1 | i | -0.89 |
| O=C(CC1c2ccccc2Oc2ccccc21)N1CCN(c2ccccn2)CC1 | i | -0.37 |
| O=C(NC1CCCCC1)C(c1ccc(F)cc1)N(C(=O)c1csnn1)C1CCCC1 (stereo unspecified) | i | 0.26 |
| O=C(Nc1ccc(Cl)c(Cl)c1)Nn1cnnc1 | i | 0.78 |
| COc1ccc2c(c1OC)C(=O)N(c1ncn[nH]1)C2 | i | -1.1 |
| COc1cccc(-c2nc(CS(=O)(=O)CC(=O)Nc3cc(C)ccc3C)c(C)o2)c1 | i | -0.61 |
| O=C(/C=C/c1cccc(Cl)c1)Nn1c(-c2cccs2)nc2ccccc2c1=O | i | -1.1 |
| COc1ccc(S(=O)(=O)N(C)C)cc1NC(=O)c1ccc(OCC(=O)N2CCOCC2)c(OC)c1 | i | 0.63 |
| O=C(CCS(=O)(=O)c1ccc(F)cc1)Nc1nc(-c2ccncc2)cs1 | i | 0.91 |
| CCOC(=O)c1[nH]c(C)c(C(=O)OCC(=O)N(C)C2CCS(=O)(=O)C2)c1C (stereo unspecified) | i | 0.31 |
| COc1cc2c(cc1OC)C1(CCCC1)CNC2c1ccc([N+](=O)[O-])cc1 (stereo unspecified) | i | -3.8 |
| Cc1[nH][nH]c(=O)c1C(c1ccc(-c2cccc(Cl)c2)o1)c1c(C)[nH][nH]c1=O | -5.9* | 0.05* |
| Brc1ccc(OCCn2ccnc2)cc1 | i | 3.7 |
| CC1CCc2c(sc(/N=C/c3ccco3)c2C(N)=O)C1 (stereo unspecified) | i | 0.35 |
| COc1ccccc1NC(=O)C(=O)/C=C(\O)c1ccccc1 | i | -3.2 |
| O=C(O)c1ccc(C2SCC(=O)N2Cc2ccccc2)cc1 (stereo unspecified) | i | 0.06 |
| CN(C(=O)CSc1ncnc2sccc12)c1c(N)n(Cc2ccccc2)c(=O)[nH]c1=O | i | 0.82 |
| CCOC(=O)C1CCCN(C(=O)c2cc3cc(OC)c(OC)cc3[nH]2)C1 (stereo unspecified) | i | 0.13 |
| CC(NC(=O)COc1ccccc1)C1COc2ccccc2O1 (stereo unspecified) | i | 0.67 |
| COc1ccc(C(=O)Nc2ccccc2C(=O)N/N=C/c2ccc(O)c(OC)c2)cc1 | i | -1.9 |
| CC(C)C(Nc1ccc(S(=O)(=O)N2CCOCC2)cc1[N+](=O)[O-])C(=O)O (stereo unspecified) | i | 0.01 |
| CCn1cc(C(=O)NC2CC(C)(C)Cc3c2cnn3-c2cccc(F)c2)cn1 (stereo unspecified) | i | 0.68 |
| CC(Nc1ccccc1N1CCCCC1)C(=O)N1CCc2ccccc21 (stereo unspecified) | i | -0.71 |
| COc1cccc(-c2nc(NC(C)(C)C)c3ccccc3n2)c1O | i | -0.1 |
| Cc1ccc(-c2cc(C(=O)Nc3ccc(S(=O)(=O)Nc4ncccn4)cc3)c3ccccc3n2)cc1 | i | 0.72 |
| CCOC(=O)C12CNC(=O)C(C(=O)OCC)(CNC1=O)C2 | i | 2 |
| COc1ccc(Cn2nnnc2C(c2cc(OC)ccc2OC)N2CCC(C(N)=O)CC2)cc1 (stereo unspecified) | i | -0.56 |
| Cc1ccn2c(NC(=O)c3ccccc3)c(-c3cccs3)nc2c1 | i | -0.01 |
| COc1cccc(NC(=O)CN2CCN(S(=O)(=O)c3ccc(C(C)C)cc3)CC2)c1 | i | 1.2 |
| COc1cccc(CC(Cc2nc3ccccc3[nH]2)c2nc3ccccc3[nH]2)c1 (stereo unspecified) | i | 0.17 |
| N#Cc1ccc(OC(=O)c2cnccn2)cc1 | i | -0.02 |
| COc1ccccc1-c1c(C)oc2c(CN3CCN(C)CC3)c(O)ccc2c1=O | i | 0.06 |
| COc1ccc(Cl)cc1NC(=O)Nn1cnnc1 | i | 1.9 |
| CCOC(=O)c1ccc(N2C(=O)CC(Nc3ccc(O)cc3)C2=O)cc1 (stereo unspecified) | i | -0.97 |
| O=C(Nc1ccc(-n2ccc(C(F)(F)F)n2)cc1)c1cccs1 | i | 2.4 |
| Cc1cc([N+](=O)[O-])nn1CC(=O)NC(C)c1ccccc1 (stereo unspecified) | i | 0.3 |
| CCOc1ccc2c(c1)c(N=O)c(O)n2C | i | 4.7 |
| CCOC(=O)N1CCN(C(=O)c2ccc3ccccc3c2)CC1 | i | 1.5 |
| COc1ccc(CN2C(=O)c3ccccc3C(/C=N\OCc3ccc(F)cc3)C2=O)cc1 (stereo unspecified) | i | 0.98 |

5 entries from above, set out differently:
The line under a structure holds: KCNQ2 block	KCNQ2 block baseline
> O=C(CCc1nnc(CCc2ccccc2)o1)NC(c1cccnc1)C(F)(F)F (stereo unspecified)
  i	0.87
> NC(=O)C1CCN(C(=O)CNC(=O)c2ccc(Br)o2)CC1
  i	2.6
> CCc1noc(C)c1C(=O)Nc1cc(C(F)(F)F)ccc1-n1cncn1
  i	0.12
> Cc1ccc(C(=O)Nc2ccc(Nc3ccccc3)cc2)c(Cl)c1
  i	1.1
> Cc1ccc(N2C(=O)C3ON(c4ccccc4)C(CC(C)C)C3C2=O)cc1 (stereo unspecified)
  i	-0.45

More compounds.
| canonical_smiles | KCNQ2 block | KCNQ2 block baseline |
| --- | --- | --- |
| COC(=O)Nc1ccc(S(=O)(=O)Nc2cc(C(F)(F)F)c[nH]c2=O)cc1 | i | -2.1 |
| COc1ccccc1-c1noc(CCC(=O)Nc2ccccc2Cl)n1 | i | -0.22 |
| COC(=O)Cn1ncn2cccc2c1=O | i | 0.66 |
| CCc1cccc(C)c1NC(=O)COC(=O)Cn1c(C)csc1=O | i | -0.02 |
| Cc1ccc(C)c(N(C)S(=O)(=O)c2ccc3[nH]cc(C(=O)NCCN4CCOCC4)c(=O)c3c2)c1 | i | 0.06 |
| CC(Oc1ccc2c(-c3ccccc3)cc(=O)oc2c1)C(=O)NCc1ccccn1 (stereo unspecified) | i | -0.36 |
| COc1ccc(CC(=O)Nc2ccc(-c3nnc(-c4ccccc4)o3)cc2)cc1OC | i | 0.32 |
| CSC1=NC(C(Cl)(Cl)Cl)N=C(c2ccc(C)cc2)N1 (stereo unspecified) | i | 0.31 |
| CCOC(=O)C1CCN(C(=O)CSc2nc3ncccc3[nH]2)CC1 | i | -1.4 |
| CCOC(=O)c1ccccc1NC(=O)CN1C(=O)NC(C)(CCc2ccccc2)C1=O (stereo unspecified) | i | 0.3 |
| CC(=O)N1CCC(=NNc2ccnc3cc(Cl)ccc23)CC1 | i | 0.23 |
| COc1ccc(N2CCN(C(=O)CCNS(=O)(=O)c3ccc(C)cc3)CC2)cc1 | i | 0.69 |
| O=C(N/N=C/c1c(O)ccc2ccccc12)c1cccc(C(F)(F)F)c1 | i | 0.01 |
| O=C(CCC(=O)N1CCSc2ccccc21)Nc1cccc(F)c1 | i | -1.1 |
| Cc1ccc(Nc2nc(N)c3ccccc3n2)cc1C | i | -2.2 |
| O=C(OCc1cccc(F)c1)c1cc2ccccc2cc1O | i | 1 |
| COc1cc(-n2cnnn2)ccc1S(=O)(=O)N1CCOCC1 | i | 0.01 |
| Cn1c(=O)c2c(nc(NNC(=O)C(F)(F)F)n2C)n(C)c1=O | i | -0.95 |
| O=C(CP(=O)(c1ccccc1)c1ccccc1)Nc1cccc(CP(=O)(c2ccccc2)c2ccccc2)c1 | i | -0.27 |
| COc1cc(/C=N/NC(=O)CN2CCCCC2)ccc1OCc1ccc(Br)cc1 | i | -0.25 |
| CCCn1c(NC(=O)c2ccc(F)cc2)nc2ccccc21 | i | 0.04 |
| COCCn1c(SCC(=O)NC2CCCCC2C)nc2ccccc2c1=O (stereo unspecified) | i | -0.26 |
| O=C(NNC(=O)c1cc(Br)ccc1Cl)c1csc(N2CCOCC2)n1 | i | -0.18 |
| CCn1c(SCC(=O)Nc2ccccc2)nnc1-c1cccs1 | i | 1.2 |
| Cc1cc(C(=O)Nc2ccccc2Cl)c2ccccc2n1 | -6.9* | -0.26* |
| CC1CCc2c(sc3ncn(CC(=O)N=Nc4c(O)[nH]c5ccccc45)c(=O)c23)C1 (stereo unspecified) | i | 1.7 |
| S=C(NCc1ccccc1)N1CCc2ccccc2C1 | i | 0.37 |
| CCOCCCNC(=O)Cn1cnc2sc(C)c(S(=O)(=O)N3CCN(c4ncccn4)CC3)c2c1=O | i | -2.9 |
| Cc1ccc(S(=O)(=O)Nc2ccc3c(c2)n(C)c(=O)n3C)c(C)c1 | i | 1.6 |
| NC(=O)NC(c1ccccc1)c1cccc2ccccc12 (stereo unspecified) | i | -0.09 |
| COc1ccc(CN2C(=O)[C@@H]3Cc4c([nH]c5ccccc45)C(C)(C)N3C2=O)cc1 | i | 1.2 |
| COc1ccc(NC(=O)c2ccc3c(c2)OCCO3)cc1OC | i | -1.8 |
| Nc1nc(NCCO)nc(NCC2CCCO2)c1[N+](=O)[O-] (stereo unspecified) | i | 1.8 |
| NC(CSCc1cccc(Br)c1)C(=O)O (stereo unspecified) | -6* | -3.8* |
| N#CCc1cnc2ccccc2n1 | i | -1.5 |
| O=[N+]([O-])c1cc(F)c(N2CCOCC2)cc1N1CCCCC1 | i | 0.51 |
| Cc1cc(C)c(C#N)c(SCC(O)COc2ccc(Br)cc2)n1 (stereo unspecified) | i | 3.9 |
| C(=C\c1ccco1)/c1nc2ccccc2[nH]1 | i | -0.46 |
| O=Cc1coc2c(ccc3ccccc32)c1=O | i | 0.62 |
| COc1ccc(OC)c(CCNC(=O)Cc2ccc(NC3=NC4CS(=O)(=O)CC4S3)cc2)c1 (stereo unspecified) | i | -2.2 |
| OC[C@H]1OC(Nc2ccc(N=Nc3ccccc3)cc2)[C@@H](O)[C@@H](O)[C@@H]1O (stereo partly specified) | i | -0.06 |
| O=C(CSc1ccccc1C(=O)N1CCCCC1)NCC1CCCCC1 | i | 0.93 |
| Clc1ccc2nc(-c3ccccc3)c(CN3CCOCC3)n2c1 | i | -0.45 |
| O=C(COc1ccc(Cl)cc1Cl)N/N=C/c1ccc(OC2OC(CO)C(O)C(O)C2O)cc1 (stereo unspecified) | i | 0.56 |
| Clc1ccc(C(c2nnnn2C2CCCCC2)N(Cc2cccnc2)Cc2ccco2)cc1 (stereo unspecified) | i | -0.73 |
| Nc1[nH]ncc1S(=O)(=O)c1ccccc1 | i | -2 |
| CCOC(=O)NC(Nc1ccc(S(N)(=O)=O)cc1)(C(=O)OCC)C(F)(F)F (stereo unspecified) | i | -1.8 |
| CC(C)c1cc(C(=O)Nc2cc(Br)ccc2O)no1 | i | 2.5 |
| CCOC(=O)c1ccccc1NC(=O)COC(=O)CC1CCCCC1 | i | 0.1 |
| COC(=O)c1cc(C(=O)Cc2ccccc2)c[nH]1 | i | 0.09 |

Carrying on.
| canonical_smiles | KCNQ2 block | KCNQ2 block baseline |
| --- | --- | --- |
| CCCCCN(C(=O)CCC(=O)OCc1ccc(C(C)(C)C)cc1)c1c(N)n(CCCC)c(=O)[nH]c1=O | i | -0.07 |
| COc1ccc(OCCOC(=O)c2cccs2)cc1 | i | -0.44 |
| CN(C)c1cc(Nc2ccc(O)cc2)c([N+](=O)[O-])c2nonc12 | i | -0.25 |
| Cc1ccc(C(C)C)c(OC(=O)/C=C/c2ccccc2)c1 | i | 0.76 |
| CC(=O)N1CCC(=O)Nc2ccc([N+](=O)[O-])cc21 | i | 0.04 |
| COc1ccc(C(=O)NC(C)C2CC3CCC2C3)c(OC)c1 (stereo unspecified) | i | 0.08 |
| C/C(=N\NC(=O)c1ccc(Br)o1)c1cc2c(cc1NC(=O)CCC(=O)O)OCO2 | i | -0.67 |
| Cc1nc(C2CCCCC2)c(-c2ccccc2)c(N2CCOC2=O)c1C | i | 0.82 |
| O=C(c1ccccn1)N1CCN(S(=O)(=O)c2ccc(F)cc2)CC1 | i | 0.13 |
| CSCCC(NC(=O)C1CCC(C)CC1)C(=O)Nc1ccc(NC(C)=O)cc1 (stereo unspecified) | i | -0.47 |
| CN1c2ccccc2C(C)(C)C12C=Nc1c(ccc3ccccc13)O2 (stereo unspecified) | -5.7* | 0.01* |
| CC(CN1CCN(C)CC1)OC(=O)c1cccc(Cl)c1 (stereo unspecified) | i | -0.98 |
| O=c1c2ccccc2nc(-c2ccccc2)n1Cc1ccc(Cl)cc1 | i | 0.47 |
| CN1C(=O)CC(N2CCN(C(=O)c3ccccc3)CC2)C1=O (stereo unspecified) | i | 1.2 |
| COc1ccc(C)cc1NC(=O)CSc1nc2ccccc2nc1N1CCCC1 | i | -0.12 |

A portion of the library (hit frequency here may not be typical).
